RanGTP-Impb inh = inhibitors of RanGTP-importin-beta interaction, primary screen, biochemical, FRET, CFP-Ran, YFP-importin-beta, homogeneous. inhibition, % (test concentration not listed). cell-free CFP-Ran/YFP-importin-beta FRET ratio. 300,000 tested, 1.1% active;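 active = most replicates above 15%; inconclusive = exactly half above 15%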;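 note: 0% = DMSO wells and 100% = Ran loaded with GDP instead of GTP; wells of about 40 µL received 100 nL stock; the first replicate is given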
ALR inh = human ALR oxidase inhibition via reduced H2O2 | purified ALR, DTT oxidation, H2O2 HRP-luminol luminescence | P55789 | inhibition, % (no concentration beside the values) | 290,000 tested, 3.8% active;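 active = mean and each replicate at 75% or more; inconclusive = only one of the two met; inactive = neither met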;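 note: stock transfer was 7.5 nL into about 7.5 µL; 0% = neutral wells and 100% = wells with inactivated enzyme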
LANA-H2B inh = blocks KSHV LANA binding to histone H2A/H2B. 320,000 tested, 0.6% active. Q9QR71. cell-free LANA-H2A/H2B peptide, fluorescence polarization. AID 2629. inhibition, % (test concentration not listed); in the data active = inhibition mostly above about 10%, no sharp cut-off; inactive = mostly below about 6.7%;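 note: stock transfer was 7.5 nL into about 10 µL; 0% = median of vehicle wells and 100% = median of positive control wells; one replicate is shown; the record names a cut of 25% in any replicate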
Target sequence (Q9QR71 whole entry, looked up): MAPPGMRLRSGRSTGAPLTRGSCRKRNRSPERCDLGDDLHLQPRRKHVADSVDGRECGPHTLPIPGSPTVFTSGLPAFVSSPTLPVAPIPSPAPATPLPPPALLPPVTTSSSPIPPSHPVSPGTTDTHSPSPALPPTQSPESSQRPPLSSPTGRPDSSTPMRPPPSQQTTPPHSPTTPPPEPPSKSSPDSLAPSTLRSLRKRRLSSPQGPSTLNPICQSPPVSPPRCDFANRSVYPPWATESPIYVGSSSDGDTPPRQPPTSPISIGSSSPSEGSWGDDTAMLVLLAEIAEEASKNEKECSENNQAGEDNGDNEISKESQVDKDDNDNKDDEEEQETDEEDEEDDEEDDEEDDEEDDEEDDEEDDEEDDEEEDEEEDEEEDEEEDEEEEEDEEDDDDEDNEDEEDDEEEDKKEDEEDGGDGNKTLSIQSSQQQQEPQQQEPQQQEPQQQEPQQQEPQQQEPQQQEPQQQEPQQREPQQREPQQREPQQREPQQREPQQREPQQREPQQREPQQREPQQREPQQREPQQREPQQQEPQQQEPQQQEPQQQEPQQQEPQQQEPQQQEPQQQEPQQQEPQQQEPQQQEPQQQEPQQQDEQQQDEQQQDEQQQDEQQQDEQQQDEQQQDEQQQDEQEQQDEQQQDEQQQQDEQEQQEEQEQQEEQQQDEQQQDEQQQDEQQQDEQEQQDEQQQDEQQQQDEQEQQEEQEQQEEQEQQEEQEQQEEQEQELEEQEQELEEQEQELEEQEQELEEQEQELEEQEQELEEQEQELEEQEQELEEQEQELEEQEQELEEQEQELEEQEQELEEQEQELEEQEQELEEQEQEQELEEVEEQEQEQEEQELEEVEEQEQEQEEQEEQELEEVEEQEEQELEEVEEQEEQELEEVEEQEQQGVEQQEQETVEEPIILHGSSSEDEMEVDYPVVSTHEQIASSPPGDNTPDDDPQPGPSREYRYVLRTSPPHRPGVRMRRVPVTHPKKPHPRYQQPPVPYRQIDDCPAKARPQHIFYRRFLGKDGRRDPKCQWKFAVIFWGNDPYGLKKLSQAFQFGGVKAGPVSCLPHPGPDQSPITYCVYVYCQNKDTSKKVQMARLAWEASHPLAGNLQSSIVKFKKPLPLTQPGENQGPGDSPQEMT
Calb FLC = C. albicans growth modulation with fluconazole; C. albicans CaCi-2 (fluconazole-resistant clinical isolate) + fluconazole, Alamar Blue growth, 48 h; growth inhibition, % (concentration not given with the values); 300,000 tested, 0.57% active; AID 1979;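 active = most replicates above 75%; inconclusive = exactly half above 75%; inactive = most below 75%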;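 note: all wells also contain fluconazole at 8 µg/ml as a sub-toxic cotreatment; 0% = median of DMSO wells and 100% = median of geldanamycin control wells; wells of about 8 µL received 7.5 nL stock; the first replicate is given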
Vif A3G = inhibitors of Vif binding to APOBEC3G peptide, primary screen, biochemical, TR-FRET, GST-Vif 1-94, biotin-A3G peptide, dose response retest (AID 1117319); TR-FRET GST-Vif / biotin-A3G peptide binding; higher % means a stronger effect; test concentration not given here; strong numbers were not always called active; one-dose inhibition, %; IC50 in µM for titrated hits; 260,000 tested, 0.57% active;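 active = above the screen mean plus three standard deviations and confirmed in dose response; inconclusive = results disagree or hit not tested in dose response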;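 note: Vif residues 1-94 fused to GST binding biotinylated APOBEC3G peptide 110-148; 0% = full assay without inhibitor and 100% = GST in place of GST-Vif; retest series ran down from 100 µM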
HNF4A DNA FP = change in binding of human HNF4 alpha to DNA; 360,000 tested, 0.3% active; AID 1224865; activity change, % at 10 µM; P41235; HNF4a-FITC DNA binding, fluorescence polarization, 1 h; in the data active = activity change above about 30%, passing the limit was not always enough;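 note: controls were the assay level and a saturating level of protein; the project sought stronger binding though the title names inhibitors; some compounds called inactive have numbers as strong as hits; positive values seem to mean higher polarization but the record does not say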
B2AR ag = agonists of human beta-2 adrenergic receptor inducing internalization; 340,000 tested, 0.43% active; AID 504454; response, % (concentration not given with the values); P07550; Am2.2-beta2AR cells, FAP receptor internalization, flow cytometry; reference of the scale not given here;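 active = response above a set limit, near 3 SD of response in nonfluorescent compounds, cut at about 42% in these data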;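 note: stock transfer was 100 nL into about 11 µL; a reference agonist was the positive control; negative values mostly stem from fluorescent compounds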
Numbers without * were called inactive; & = joins results of further samples.

C/C(=N\Nc1nc2ccccc2s1)c1cccs1 was read as RanGTP-Impb inh 22*, LANA-H2B inh -1.2, Calb FLC -8, Vif A3G 0%, HNF4A DNA FP 7.6 and B2AR ag 10.
For CCOc1ccc(S(=O)(=O)Nc2cccc(C(=O)NCC3(N4CCCCC4)CCCCC3)c2)cc1 the results were RanGTP-Impb inh inconclusive, ALR inh -4, LANA-H2B inh 1.0, Calb FLC -8, Vif A3G -7%, HNF4A DNA FP -0.4 and B2AR ag 10.
For COc1ccc(N2C(=O)CC(SCCc3nc4ccccc4[nH]3)C2=O)cc1 (stereo not given) the results were RanGTP-Impb inh -4.4, ALR inh -8, LANA-H2B inh 2.3, Calb FLC -4, Vif A3G 2%, HNF4A DNA FP 2.3 and B2AR ag 0.
O=C(Cc1ccccc1)NN1C(=O)/C(=C/c2ccc(C(=O)O)cc2)SC1=S was read as RanGTP-Impb inh -2.9, LANA-H2B inh 3.7, Calb FLC -6, HNF4A DNA FP 0.3 and B2AR ag -11.
`O=C(CSc1nnc(CNC(=O)c2c(F)cccc2F)o1)NCc1ccccc1Cl` gave RanGTP-Impb inh 4.6, ALR inh 0, LANA-H2B inh 3.6, Calb FLC -3, HNF4A DNA FP 1.1 and B2AR ag 1.
`CCN(Cc1ccncc1)C(=O)c1ccc(C)c(S(=O)(=O)N2CCCCC2)c1` gave ALR inh -2, LANA-H2B inh 0.4, HNF4A DNA FP 0.8 and B2AR ag 3.
Screening Cc1ccc(Nc2nc3nonc3[nH]c2=O)cc1 returned RanGTP-Impb inh -0.8, ALR inh 20, LANA-H2B inh -2.4, Calb FLC 29, Vif A3G 17%, HNF4A DNA FP 3.7 and B2AR ag 10.
Screening CC(C)(C)NC(=O)C(c1ccc(F)cc1)N(CCc1ccccc1)C(=O)c1ccn[nH]1 (stereo not given) returned RanGTP-Impb inh 2.5, ALR inh 4, LANA-H2B inh -2.1, Calb FLC 6, HNF4A DNA FP 0.2 and B2AR ag 1.
`O=S(=O)(NC1CC2CCC1C2)c1ccc(Br)s1` (stereo not given) gave RanGTP-Impb inh inconclusive, ALR inh -2, LANA-H2B inh 1.2, Calb FLC -27, Vif A3G -2%&-5%, HNF4A DNA FP 4.9 and B2AR ag -1.
For COc1ccccc1N1CC(C(=O)Nc2nnc(SCC(=O)N3CCCC3)s2)CC1=O (stereo not given) the results were RanGTP-Impb inh -0.1, ALR inh 13, LANA-H2B inh 0.1, Calb FLC 1, Vif A3G 9%, HNF4A DNA FP 1.5 and B2AR ag -5.
`CCOc1ccc(CN2CCN(CCCc3ccccc3)CC2CCO)cc1` (stereo not given) gave RanGTP-Impb inh 3.1, LANA-H2B inh 5.3, Calb FLC -12, HNF4A DNA FP -0.5 and B2AR ag 20.
For Cc1ccc(N2C(=O)N3[C@H](c4ccc(Cl)cc4)[C@@H]4C(=O)N(C5CCCCC5)C(=O)[C@@H]4[C@]3(Cc3ccccc3)C2=O)cc1 the results were RanGTP-Impb inh -4.5, LANA-H2B inh 1.9, Calb FLC 4, HNF4A DNA FP 1.9 and B2AR ag 0.

A draw from above in order of molar mass, falling.
For CCOc1ccc(S(=O)(=O)Nc2cccc(C(=O)NCC3(N4CCCCC4)CCCCC3)c2)cc1 the results were RanGTP-Impb inh inconclusive, ALR inh -4, LANA-H2B inh 1.0, Calb FLC -8, Vif A3G -7%, HNF4A DNA FP -0.4 and B2AR ag 10.
`O=C(CSc1nnc(CNC(=O)c2c(F)cccc2F)o1)NCc1ccccc1Cl` gave RanGTP-Impb inh 4.6, ALR inh 0, LANA-H2B inh 3.6, Calb FLC -3, HNF4A DNA FP 1.1 and B2AR ag 1.
O=C(Cc1ccccc1)NN1C(=O)/C(=C/c2ccc(C(=O)O)cc2)SC1=S was read as RanGTP-Impb inh -2.9, LANA-H2B inh 3.7, Calb FLC -6, HNF4A DNA FP 0.3 and B2AR ag -11.
`CCOc1ccc(CN2CCN(CCCc3ccccc3)CC2CCO)cc1` (stereo not given) gave RanGTP-Impb inh 3.1, LANA-H2B inh 5.3, Calb FLC -12, HNF4A DNA FP -0.5 and B2AR ag 20.
Screening Cc1ccc(Nc2nc3nonc3[nH]c2=O)cc1 returned RanGTP-Impb inh -0.8, ALR inh 20, LANA-H2B inh -2.4, Calb FLC 29, Vif A3G 17%, HNF4A DNA FP 3.7 and B2AR ag 10.

(further entries)
For Cc1ccc(-c2onc3ccc(C(=O)O)cc23)cc1 the results were RanGTP-Impb inh -1.3, ALR inh 73, LANA-H2B inh 1.4, Calb FLC 13, Vif A3G -6%, HNF4A DNA FP -0.3 and B2AR ag 4.
`O=C(OCC(=O)N1CCN(C(=O)c2ccco2)CC1)c1ccccc1C(=O)c1ccccc1` gave RanGTP-Impb inh -2.4, ALR inh -11, LANA-H2B inh 1.1, Calb FLC -6, Vif A3G 1%, HNF4A DNA FP -0.6 and B2AR ag 0.
`Cc1cccc(NC(=S)N2CCC(NC(=O)C3CCCCC3)CC2)c1` gave RanGTP-Impb inh 1.5, ALR inh 8, LANA-H2B inh -2.9, Calb FLC -6, HNF4A DNA FP 0.8 and B2AR ag -6.
Screening COc1c(C)cccc1C(=O)Nc1cc(-c2nn3c(C)nnc3s2)ccc1C returned RanGTP-Impb inh 6.5, ALR inh 42, LANA-H2B inh 1.2, Calb FLC -5, Vif A3G 4%, HNF4A DNA FP 0.7 and B2AR ag 13.
CC(=O)c1ccc(N2CCc3ccccc3C2)c([N+](=O)[O-])c1 was read as RanGTP-Impb inh 2.7, ALR inh -4, LANA-H2B inh -6.4, Calb FLC -18, Vif A3G 13%, HNF4A DNA FP -2.9 and B2AR ag -1.
CC(C(=O)NC1CCCC1)N(C(=O)Cn1nnc(-c2ccc(F)cc2)n1)c1ccccc1F (stereo not given) was read as RanGTP-Impb inh 1.9, ALR inh -3, LANA-H2B inh 1.7, Calb FLC -5, HNF4A DNA FP 4.1 and B2AR ag 22.
`CCOc1ccc(NC(=O)C2CCCN(S(=O)(=O)c3ccc4c(c3)CCCN4C(C)=O)C2)cc1` (stereo not given) gave RanGTP-Impb inh 1.7, ALR inh -3, LANA-H2B inh -4.3, Calb FLC 10, HNF4A DNA FP 1.2 and B2AR ag -1.
`Cc1ccc(NC(=O)c2cccc3ccccc23)cc1` gave RanGTP-Impb inh -1.1, ALR inh -10, LANA-H2B inh -3.7, Calb FLC -22, HNF4A DNA FP 0.0 and B2AR ag -10.
CN(CC(=O)Nc1ccccc1Cl)C(=O)COC(=O)/C=C/c1cccc(C(F)(F)F)c1 was read as LANA-H2B inh -0.2, Vif A3G 5%, HNF4A DNA FP 3.8 and B2AR ag -1.
O=C(COc1ccc(Cl)cc1)NC1CCSC1=O (stereo not given) was read as RanGTP-Impb inh -2.6, ALR inh -11, LANA-H2B inh 4.6, Calb FLC 102*, Vif A3G -3%, HNF4A DNA FP 2.1 and B2AR ag -1.
For CC(Oc1ccc(F)cc1)C(=O)Nc1cc(S(=O)(=O)N2CCCCC2)ccc1N1CCOCC1 (stereo not given) the results were RanGTP-Impb inh -1.9, ALR inh -2, LANA-H2B inh -1.7, Calb FLC 3, Vif A3G 6%, HNF4A DNA FP -0.8 and B2AR ag -4.
`Cc1cccc(C(=O)Nc2cccc(S(=O)(=O)NCc3ccco3)c2)c1` gave ALR inh 2, LANA-H2B inh -137, Vif A3G -13%, HNF4A DNA FP 0.3 and B2AR ag 5.
Screening CC(C)(C)C(=O)Nc1nnc(Cc2ccccc2)s1 returned ALR inh -11, LANA-H2B inh -6.5, Calb FLC -6, Vif A3G 4%, HNF4A DNA FP 9.2 and B2AR ag -2.
For CC1CCCN(C(=O)COC(=O)c2cccc(NS(=O)(=O)c3ccccc3)c2)C1 (stereo not given) the results were RanGTP-Impb inh -0.7, ALR inh -1, LANA-H2B inh 5.2, Calb FLC -1, Vif A3G -9%, HNF4A DNA FP -0.7 and B2AR ag 4.
Screening CN(Cc1c(C(=O)N/N=C/c2ccc(O)cc2)nnn1-c1nonc1N)c1ccccc1 returned RanGTP-Impb inh 0.6, ALR inh 100*, LANA-H2B inh -4.0, Calb FLC -8, HNF4A DNA FP 0.5 and B2AR ag 6.
Screening CCc1ccc(-c2nc(CN3CCC(C(=O)NCc4ccccc4OC)CC3)c(C)o2)cc1 returned RanGTP-Impb inh 4.6, ALR inh -9, LANA-H2B inh 2.2, Calb FLC -27, Vif A3G 8%&-7%, HNF4A DNA FP -0.8 and B2AR ag -1.
For CN1CCN(c2ccc(S(=O)(=O)N3CCCCC3)cc2NC(=O)Cc2c(F)cccc2Cl)CC1 the results were RanGTP-Impb inh 0.2, ALR inh -16, LANA-H2B inh -2.8, Calb FLC -8, Vif A3G 3%, HNF4A DNA FP 3.1 and B2AR ag 17.
Screening CC12CCC3C(=CCc4cc(O)ccc43)C1CC(=NO)C2O (stereo not given) returned Vif A3G 1%, HNF4A DNA FP 1.8 and B2AR ag -4.
c1ccc(CN2CN=C(Nc3nc4ccccc4s3)NC2)cc1 was read as RanGTP-Impb inh -2.1, LANA-H2B inh 5.3, Calb FLC 36, Vif A3G -5%, HNF4A DNA FP 1.9 and B2AR ag -2.
Screening Cn1c(SCC(=O)O)nc2ccccc2c1=O returned RanGTP-Impb inh 3.1, ALR inh -1, LANA-H2B inh 12, Calb FLC -9, Vif A3G 2%, HNF4A DNA FP -0.9 and B2AR ag -4.
For CN1CCN(c2nc3ccccc3nc2NS(=O)(=O)c2ccc(Br)cc2)CC1 the results were ALR inh 7, LANA-H2B inh 0.1, Vif A3G 5%, HNF4A DNA FP -4.7 and B2AR ag 4.
O=C1CC2(CCCCCC2)Oc2ccc(Cl)cc21 was read as RanGTP-Impb inh -0.9, ALR inh -4, LANA-H2B inh -1.1, Calb FLC -15, HNF4A DNA FP -1.9 and B2AR ag -4.
CCOC(=O)c1cc(C(=O)OCC)c(=O)[nH]c1C was read as RanGTP-Impb inh 0.4, ALR inh -1, LANA-H2B inh 11, Calb FLC 3, Vif A3G 14%, HNF4A DNA FP 1.4 and B2AR ag 2.
Cc1ccc(N(CC(=O)Nc2ccc(S(=O)(=O)N3CCOCC3)cc2)S(C)(=O)=O)cc1C was read as RanGTP-Impb inh 0.1, ALR inh -1, LANA-H2B inh 4.6, Calb FLC 1, Vif A3G -4%, HNF4A DNA FP 4.4 and B2AR ag 4.
Screening N#C/C(=C(/O)c1ccc(Cl)cc1)c1nc2ccccc2[nH]1 returned RanGTP-Impb inh 2.3, ALR inh 6, LANA-H2B inh -1.9, HNF4A DNA FP 3.7 and B2AR ag 1.
Screening COC(=O)c1ccc(OC(=O)CCc2cc(OC)c(OC)c(OC)c2)cc1 returned RanGTP-Impb inh 1.8, ALR inh 0, LANA-H2B inh 2.2, Calb FLC 0, Vif A3G 1%, HNF4A DNA FP 3.4 and B2AR ag 5.
For Cc1ccc(C)n1-c1ncn[nH]1 the results were RanGTP-Impb inh -4.9, LANA-H2B inh -0.8, Calb FLC 1, Vif A3G 2%, HNF4A DNA FP 1.6 and B2AR ag 4.
Screening O=C(Cn1cnc2cc([N+](=O)[O-])ccc2c1=O)Nc1ccc(Br)cc1 returned RanGTP-Impb inh inconclusive, ALR inh -9, LANA-H2B inh 1.4, Calb FLC 11, Vif A3G -4%, HNF4A DNA FP 0.5 and B2AR ag -1.
For CC(C)CCNC(=O)C(=O)Nc1cc2c3c(c1)CCC(=O)N3CCC2 the results were RanGTP-Impb inh 3.7, ALR inh 7, LANA-H2B inh -3.2, Calb FLC 13, HNF4A DNA FP -1.2 and B2AR ag -1.
COc1ccc(NC(=O)CCCN2C(=O)CCC2=O)cc1Cl was read as RanGTP-Impb inh 0.6, ALR inh -7, LANA-H2B inh 3.0, Calb FLC -7, Vif A3G inconclusive, HNF4A DNA FP 1.3 and B2AR ag -2.

Compounds were not picked by outcome. About 6.3% of those tested had a hit in this group.
